HTT promoter inh – inhibitors of huntingtin promoter activity. Potency, µM (titrated, usually from 57.5 µM), inactives show at the top dose activity change, negative = inhibition, actives largely listed as inhibitors. hit rate 0.93% among 48,000. HEK293 HTT promoter firefly luciferase reporter (activity 0% = vehicle and -100% = no light), 24 h; active means well fitted inhibition curve with a large enough effect; inconclusive means small, poorly fitted or top-dose-only effect; inactive means no such curve, though single readings can be large or run the other way; further: nearly all actives have a fitted effect of over 50% in size
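Luminescence was read after Dual-Glo reagent and a 10 min room-temperature incubation. Values were normalized to vehicle (0% activity) and zero RLU (-100% activity). Reporter HEK293 cells had been exposed to compounds (up to 57.5 uM final) for 24 h.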
PMP22 txn – modulators of PMP22 gene transcription in S16 Schwann cells. S16 Pmp22-F2sN Schwann cells (luciferase reporters placed in the Pmp22 gene), FLuc/NLuc coincidence luminescence, 24 h. Potency, µM (doses to about 57.5 µM), for the others: at the highest dose activity change, negative = inhibition, usual class: inhibitors. hit rate 2% among 43,000. AID 1508649; active = clear falling dose curves in both reporters; inconclusive = both reporters move, but less clearly or upward; inactive = either reporter flat; the % is the NLuc reporter signal; further: on the % scale 0 is the no-effect control and ±100 the full control effect; some results filed as inactive show a strong effect at the top dose
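Transcriptional readout in edited S16(c9) cells: two luciferases reported from the Pmp22 locus, measured in turn after 24 h compound incubation.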
* marks the source's active call; other numbers are inactive results; u = inconclusive; x = no result given; & = joins results of further samples; [ ] = another dose, or the depositor's remark. Potency means the concentration at half of the fitted maximal effect.

SMILES,HTT promoter inh,PMP22 txn
CN(C)C(=O)c1ccc(S(=O)(=O)c2ccc(NC(=O)[C@@](C)(O)C(F)(F)F)c(Cl)c2)cc1,-28.9%,x
Cc1c(C(=O)O)c(O)cc2c1C(=O)c1c(O)c([C@@H]3O[C@H](CO)[C@@H](O)[C@H](O)[C@H]3O)c(O)c(O)c1C2=O,-7.2%,x
COCCn1c(SCC(=O)Nc2ccc(F)c(Cl)c2)nc2c(oc3ccccc32)c1=O,3.8%,u
Cc1cncc2cccc(S(=O)(=O)N3CCCN(C(=O)CN)C[C@@H]3C)c12,-12.9%,x
CCN(CC)CCOC(=O)c1ccc(N)cc1,3.1%,x
COc1ccc(C2CNC(=O)C2)cc1OC1CCCC1 (stereo not drawn),25.7%&-2.1%,x
COCCc1ccccn1,-2.1%,x
Cc1cnc(-c2cc(N3CCN(C(=O)CCS(C)(=O)=O)CC3)ncc2Cl)c(C)c1,-9.3%,x
CCc1cc(Nc2nccc(-c3c(-c4ccc(OC)c(C(=O)Nc5c(F)cccc5F)c4)nc4ccccn34)n2)c(OC)cc1N1CCC(N2CCN(S(C)(=O)=O)CC2)CC1,1.2%,x
COc1ccc(C2=N[C@H](c3ccc(Cl)cc3)[C@H](c3ccc(Cl)cc3)N2C(=O)N2CCNC(=O)C2)c(OC(C)C)c1,-10.8%,x
C[C@]1(c2nc3c(C(N)=O)cccc3[nH]2)CCCN1,-8.2%,x
NC(=O)C1(N2CCCCC2)CCN(CCCC(=O)c2ccc(F)cc2)CC1,3.9%,x
Cc1cc([C@@H](C)Nc2ccccc2C(=O)O)c2nc(N3CCOCC3)cc(=O)n2c1,u,x
CCOC(=O)[C@H](CCc1ccccc1)N[C@@H](C)C(=O)N1Cc2ccccc2C[C@H]1C(=O)O,3.5%,x
CC(=O)Nc1ccc([C@H](C)C(=O)Nc2ncc(C(C)C)s2)cc1,u,x

The list continues:
SMILES,HTT promoter inh,PMP22 txn
O=C(CCCl)NCc1ccccc1,5.7%,x
C/C=C/C(=O)N(CC)c1ccccc1C,5.2%,x
Cc1ccn(-c2ccc(-c3ncco3)cc2)c(=O)c1-c1ccc2nc(N)ncc2c1,-15.2%,x
CC[C@H](NC(C)C)[C@H](O)c1ccc(O)c2[nH]c(=O)ccc12,-1.7%&4.7%,x
COc1ccc(-c2cc(=O)c3c(O)cc(O[C@@H]4O[C@H](CO[C@@H]5O[C@@H](C)[C@H](O)[C@@H](O)[C@H]5O)[C@@H](O)[C@H](O)[C@H]4O)cc3o2)cc1O,3.8%,x
COc1cc2ncn(-c3cc(OCc4ccccc4C(F)(F)F)c(C(N)=O)s3)c2cc1OC,-29.5%,x
CCCCN(CCCC)C(C(N)=O)c1ccc(OC)cc1 (stereo not drawn),5.2%,x
CC1(C)[C@H](O[C@H]2O[C@H](C(=O)O)[C@@H](O)[C@H](O)[C@H]2O[C@@H]2O[C@H](C(=O)O)[C@@H](O)[C@H](O)[C@H]2O)CC[C@@]2(C)[C@H]1CC[C@]1(C)[C@H]2C(=O)C=C2[C@H]3C[C@@](C)(C(=O)O)CC[C@]3(C)CC[C@]21C,-3.2%,x
O=C(O)CCC(=O)c1ccc(-c2ccccc2)cc1,4.9%,x
O=c1cc(O)c(Cl)c[nH]1,8.8%&-4.9%,x
CCCCNc1ccc(C(=O)OCCN(C)C)cc1,15.8%,x
CCOC(=O)N1CCC(n2c(=O)[nH]c3cc(Cl)ccc32)CC1,u,x
Cc1[nH]cnc1-c1ccc(Cl)cc1,5.5%,x
COc1cccc2cc(-c3nc(C4CCC(C(=O)O)CC4)n4ncnc(N)c34)[nH]c12 (stereo not drawn),u,x
CC1Cc2ccccc2N1NC(=O)c1ccc(Cl)c(S(N)(=O)=O)c1 (stereo not drawn),-8.2%&0.4%,x

Part of the list above, with two lines to a compound:
The line under a structure holds: HTT promoter inh | PMP22 txn
CCCCNc1ccc(C(=O)OCCN(C)C)cc1
  15.8% | x
CCOC(=O)N1CCC(n2c(=O)[nH]c3cc(Cl)ccc32)CC1
  u | x
Cc1[nH]cnc1-c1ccc(Cl)cc1
  5.5% | x

(continued)
SMILES,HTT promoter inh,PMP22 txn
COc1cc2nc(-c3cc(F)ccc3O)nc(N[C@@H]3CNC[C@@H]3C(C)(C)O)c2cc1OC,u,x
N#Cc1ccc(C(c2ccc(C#N)cc2)n2cncn2)cc1,-13.5%,x
COc1ccc(-n2nc3c(N4CCCC(C(=O)NCc5ccccc5C)C4)nnc(C)c3c2C)cc1 (stereo not drawn),u,12.6µM*
Cc1cncn1CCc1nc2c3ccccc3nc(SCC(=O)Nc3cccc(Cl)c3)n2n1,u,u
NS(=O)(=O)c1cc2c(cc1Cl)CN(C1CCCCC1)C2=O,8.7%,x
N[C@@H](Cc1c[nH]c2ccc(O)cc12)C(=O)O,8.7%&-7.5%,x
CCC(=O)N1CCN(c2ccc(-n3c(=O)ccc4cnc5ccc(-c6cnc7ccccc7c6)cc5c43)cc2C(F)(F)F)CC1,-28.8%,x
CN1CCCN=C1COC(=O)C(O)(c1ccccc1)C1CCCCC1 (stereo not drawn),4.4%,x
CCCc1nc(C(C)(C)O)c(C(=O)O)n1Cc1ccc(-c2ccccc2-c2nn[nH]n2)cc1,-8.7%,x
CCCCC(CC)CNC(=O)CC(C)OC(=O)CCC(=O)O (stereo not drawn),28.8%,x
CO/N=C(/C(=O)N[C@@H]1C(=O)N2C(C(=O)O)=C(Cn3nnc(C)n3)CS[C@H]12)c1csc(N)n1,-0.8%,x
CCn1c(-c2nonc2N)nc2c(C#CC(C)(C)O)ncc(OC[C@H]3CCCNC3)c21,-19.5%,x
CC(=O)Oc1ccc(C(=C2CCCCC2)c2ccc(OC(C)=O)cc2)cc1,-6.5%,x
COc1cc(C(c2c(C)[nH][nH]c2=O)c2c(C)[nH][nH]c2=O)ccc1OC(=O)c1cccc(C)c1,0.5%,-14.5%
COc1cc2ncnc(Nc3cccc(Cl)c3)c2cc1OC,1.0%,x

The list continues.
SMILES,HTT promoter inh,PMP22 txn
CCCOC(=O)c1ccc(N)cc1,5.9%,x
CN1CCC(CNc2ccc3ncc(-c4cccc(OC(F)(F)F)c4)n3n2)CC1,u,x
C[C@@H](Oc1ccc2[nH]nc(C=Cc3cnn(CCO)c3)c2c1)c1c(Cl)cncc1Cl,u,x
Cc1cc2c(F)c(Oc3ncnn4cc(OC[C@@H](C)O)c(C)c34)ccc2[nH]1,-22.3%,x
CCNC(=O)NCCCOc1cccc(CN2CCCCC2)c1,-12.8%,x
Cc1ccc(S(=O)(=O)NC(=O)NC2CCCCC2)cc1,4.7%,x
COc1ccc(CC(=O)Nc2c(C(=O)N3CCN(c4ccccc4F)CC3)oc3ccccc23)cc1OC,u,u
CS(=O)(=O)c1ccc(-c2cnc(N)c(C(=O)Nc3ccccc3)n2)cc1,-21.5%,x
CNC(=O)c1nn(C)c2c1C(C)(C)Cc1cnc(Nc3ccc(N4CCN(C)CC4)cc3)nc1-2,u,x
Oc1ccc(C2CNCCc3c2cc(O)c(O)c3Cl)cc1 (stereo not drawn),-4.6%&-7.8%,x
N[C@H]1CN(c2c(F)cc3c(=O)c(C(=O)O)cn(C4C[C@@H]4F)c3c2Cl)CC12CC2 (stereo partly drawn),-0.9%,x
CC(C(=O)O)c1ccc2c(c1)CC(=O)c1ccccc1S2 (stereo not drawn),13.0%&-7.3%,x
CC(O)CNC(=O)C(=O)Nc1c2c(nn1-c1ccc(Cl)cc1)CSC2 (stereo not drawn),-21.6%,-13.7%
C[N+]1(C)CCC(=C(c2ccccc2)c2ccccc2)CC1,8.3%,x
C1COC(NC(C2CC2)C2CC2)=N1,-1.5%&-7.9%,x

Later entries.
SMILES,HTT promoter inh,PMP22 txn
CNCCCN1c2ccccc2CCc2ccccc21,-10.6%,x
CC(C)c1cc(-c2n[nH]c(=O)n2-c2ccc3c(ccn3C)c2)c(O)cc1O,u,x
COc1ccnc2[nH]cc(C(=O)C(=O)N3CCN(C(=O)c4ccccc4)C[C@@H]3C)c12,8.1%,x
Cc1ccc(N(CC2=NCCN2)c2cccc(O)c2)cc1,3.7%&-0.8%,x
O=C(CC12CC3CC(CC(C3)C1)C2)Nc1cccc2nc(NCCNCCO)ccc12,-33.8%,x
CCOc1cc2ncc(C#N)c(Nc3ccc(OCc4ccccn4)c(Cl)c3)c2cc1NC(=O)C=CCN(C)C,-27.0%,x
Cc1cc(=O)oc2cc(O[C@@H]3SC[C@@H](O)[C@H](O)[C@H]3O)ccc12,13.7%,x
COc1ccc(-c2cn3cccnc3n2)cc1NC(=O)c1cc(C)cc(C)c1,4.3%,-42.1%
CN(C)CCCC1(c2ccc(F)cc2)OCc2cc(C#N)ccc21 (stereo not drawn),-16.9%,x
COc1ccc(Cn2c(SCc3ccc(C(=O)NC4CCCC4)cc3)nc3ccncc32)cc1,u,-17.4%
CCCCN(CCCC)CC(O)c1cc(Cl)cc2c1-c1ccc(Cl)cc1C2=Cc1ccc(Cl)cc1 (stereo not drawn),-8.4%,x
CCCCn1cnc2cc(NCc3ccccc3Cl)ccc21,-24.0%,-78.2%
Cn1c(CNc2ccc(C(=N)N)cc2)nc2cc(C(=O)N(CCC(=O)O)c3ccccn3)ccc21,-2.0%[25.2 µM],x
CC(C)(O)CC(=O)NCCn1ccc2ncnc(Nc3ccc(Oc4cccc(C(F)(F)F)c4)c(Cl)c3)c21,-17.5%,x
CC(=O)Nc1ccc(CC(=O)O)cc1,-13.4%,x

3 entries from above, reformatted.
> Cc1ccc(S(=O)(=O)NC(=O)NC2CCCCC2)cc1
  HTT promoter inh: 4.7%	PMP22 txn: x

> COc1ccc(CC(=O)Nc2c(C(=O)N3CCN(c4ccccc4F)CC3)oc3ccccc23)cc1OC
  HTT promoter inh: u	PMP22 txn: u

> Cc1c(C(=O)O)c(O)cc2c1C(=O)c1c(O)c([C@@H]3O[C@H](CO)[C@@H](O)[C@H](O)[C@H]3O)c(O)c(O)c1C2=O
  HTT promoter inh: -7.2%	PMP22 txn: x

(list continues)
SMILES,HTT promoter inh,PMP22 txn
CCOC(N)=O,17.0%,x
Cc1cc(O)c(C)c(C)c1O,-2.1%,x
CCCCNc1ccc(C(=O)OCCOCCOCCOCCOCCOCCOCCOCCOCCOC)cc1,-31.2%,x
CC1(C)CNc2cc(NC(=O)c3cccnc3NCc3ccncc3)ccc21,0.3%,x
Cc1c(Cn2ccnc2)c2ccccc2n1CCC(=O)O,8.8%,x
O=C(CSc1nc2ccccc2n1Cc1cccc(Cl)c1)N1CCN(c2ccc(F)cc2)CC1,u,-5.4%
CO/N=C(/C(=O)N[C@@H]1C(=O)N2C(C(=O)[O-])=C(C[n+]3ccn4ncccc43)CS[C@H]12)c1nsc(N)n1,1.1%,x
COc1ccc(-c2cc(=S)ss2)cc1,6.2%,x
c1cnc2cc3c(cc2n1)C1CNCC3C1,23.1%,x
O=C(NC1CCOCC1)c1ccc(-c2cc(-c3cn[nH]c3-c3ccccn3)ccn2)cc1,1.2%,x
CC(=O)CCCCn1c(=O)c2c(ncn2C)n(C)c1=O,-2.3%,x
CCNC(=O)NCc1cccc(Cl)c1,7.3%,x
CNC1CCC(N(Cc2cccc(-c3ccncc3)c2)C(=O)c2sc3ccccc3c2Cl)CC1 (stereo not drawn),-16.6%,x
CCc1cccc(CC)c1NC(=O)N1Cc2[nH]nc(NC(=O)c3ccc(N4CCN(C)CC4)cc3)c2C1,0.6%,x
CC(C)NC[C@@H](C(=O)N1CCN(c2ncnc3c2[C@H](C)C[C@H]3O)CC1)c1ccc(Cl)cc1,u,x
CN(C)CCC=C1c2ccccc2COc2ccc(CC(=O)O)cc21,11.0%,x
NC1CCN(c2nc3c(cc2F)c(=O)c(C(=O)O)cn3-c2ccc(F)cc2F)C1 (stereo not drawn),23.2%,x
O=C(O)c1cccnc1Nc1cccc(C(F)(F)F)c1,-4.5%&6.1%,x

Not all compounds are listed. The share of hits here may be higher or lower than overall.
